# Bioassay records (PubChem)
# Vif TR-FRET – HIV-1 Vif–A3G interaction blockers – biochemical, TR-FRET, GST-Vif 1-94, biotin-A3G peptide, dose response retest, primary screen (AID 1117319); TR-FRET GST-Vif / biotin-A3G peptide binding; higher % means a stronger effect; test concentration not given here; strong numbers were not always called active; inhibition, %, or IC50 in µM where a hit was titrated; actives 0.57% (n = 260,000);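 active = above the screen mean plus three standard deviations and confirmed in dose response; inconclusive = results disagree or hit not tested in dose response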;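 also: Vif residues 1-94 fused to GST binding biotinylated APOBEC3G peptide 110-148; 0% = full assay without inhibitor and 100% = GST in place of GST-Vif; retest series ran down from 100 µM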
# RanGTP-Imp inh – inhibitors of RanGTP-importin-beta interaction, primary screen, biochemical, FRET, CFP-Ran, YFP-importin-beta, homogeneous. AID 2216. cell-free CFP-Ran/YFP-importin-beta FRET ratio. actives 1.1% (n = 300,000). inhibition, % (concentration not given with the values);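 active = most replicates above 15%; inconclusive = exactly half above 15%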;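 also: 0% = DMSO wells and 100% = Ran loaded with GDP instead of GTP; wells of about 40 µL received 100 nL stock; the first replicate is given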
# AF4-AF9 inh – blocks AF4 peptide binding to human AF9. P42568. AlphaScreen, biotin-AF4 peptide binding to FLAG-AF9. inhibition, % at 10 µM. actives 0.47% (n = 350,000). AID 651704;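 active = every replicate reaching a set inhibition limit, whatever the replicate mean, cut at about 25% in these data; inconclusive = mean inhibition reaches that limit but some replicates miss it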;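 also: 0% = plate neutral control median and 100% = total signal loss; the record names both 10 and 1 µM as test concentration; the first replicate is given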
# Target sequence (P42568 whole entry, looked up): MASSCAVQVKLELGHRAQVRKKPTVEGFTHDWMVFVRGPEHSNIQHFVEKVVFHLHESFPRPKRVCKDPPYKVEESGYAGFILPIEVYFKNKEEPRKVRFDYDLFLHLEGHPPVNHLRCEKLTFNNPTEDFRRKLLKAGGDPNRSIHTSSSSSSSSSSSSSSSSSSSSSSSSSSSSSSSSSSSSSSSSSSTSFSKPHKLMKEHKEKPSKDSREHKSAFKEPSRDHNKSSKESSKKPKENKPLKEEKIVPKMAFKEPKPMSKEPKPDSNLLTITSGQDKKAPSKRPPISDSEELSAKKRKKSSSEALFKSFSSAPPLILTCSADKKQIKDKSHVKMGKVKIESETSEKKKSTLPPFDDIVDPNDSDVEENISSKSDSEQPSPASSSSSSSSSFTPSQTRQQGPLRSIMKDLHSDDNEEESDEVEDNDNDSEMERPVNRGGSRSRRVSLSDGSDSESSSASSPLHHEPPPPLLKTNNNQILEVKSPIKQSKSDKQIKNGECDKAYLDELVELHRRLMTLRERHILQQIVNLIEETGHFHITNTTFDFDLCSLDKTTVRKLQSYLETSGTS
# rRNA inh HTS – inhibits bacterial ribosomal RNA function over humanized ribosomes. GFP signal change (wild-type ribosome), % (no concentration beside the values). actives 1.6% (n = 350,000). E. coli WT GFP vs humanized-ribosome RFP mutants, fluorescence, 24 h; stronger effect = lower value; DMSO median 0, no signal -100. AID 720706;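 active = significant combined selectivity score with lowered wild-type GFP, culture density cut under 30%, mutant RFP and density less affected; inactive = any of these conditions unmet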; also: one replicate is shown; some compounds called inactive have numbers as strong as hits
# T cruzi repl – blocks replication of Trypanosoma cruzi; T. cruzi beta-gal in NIH3T3, luminescence, 90 h; inhibition, % (no concentration beside the values); actives 1.4% (n = 300,000); AID 1885;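 active = mean inhibition across valid replicates above about 55%, limit read from the data; inconclusive = mean below that limit but half or more replicates reach it; inactive = mean below it, under half of replicates reach it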;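 also: signal also drops with host cell toxicity which is not excluded here; 0% = plate median of DMSO wells and 100% = zero luminescence signal; higher percent means less beta-gal luminescence so fewer parasites; stock transfer was 50 nL into about 50 µL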
# Calb FLC – affects C. albicans growth with fluconazole; growth inhibition, % (test concentration not listed); C. albicans CaCi-2 (fluconazole-resistant clinical isolate) + fluconazole, Alamar Blue growth, 48 h; actives 0.57% (n = 300,000);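 active = most replicates above 75%; inconclusive = exactly half above 75%; inactive = most below 75%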;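 also: all wells also contain fluconazole at 8 µg/ml as a sub-toxic cotreatment; 0% = median of DMSO wells and 100% = median of geldanamycin control wells; wells of about 8 µL received 7.5 nL stock; the first replicate is given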
# Bfl-1 A1 inh – inhibitors of the anti-apoptotic protein A1, read as caspase activation | MEF A1-2A-BIM cells, Caspase-Glo 3/7 luminescence, 3 h; percent of clofoctol response, vehicle zero | caspase activation, % (test concentration not listed) | actives 0.066% (n = 330,000) | AID 2462;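 active = over half of replicate activation scores above 10%, or exactly half above 10 with the replicate mean above 10; inconclusive = replicate mean below 10 yet half the replicates above 10; inactive = over half of replicates below 10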;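 also: wells of about 30 µL received 50 nL stock; many hits fall short of the cut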
# Beta apoptosis – beta cell apoptosis inhibition | protection from apoptosis, % (test concentration not listed) | INS-1E cytokine-induced death, ATP luminescence, 48 h; percent of positive-control rescue, neutral wells zero | AID 435005 | actives 0.8% (n = 300,000);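 active = all replicates at 75% or more, or half of them and the mean; inconclusive = half reach 75% but not the mean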;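 also: 0% = cytokine-treated negative control wells and 100% = positive control rescue; higher means more ATP so stronger rescue from cytokine killing; wells of about 40 µL received 100 nL stock; the first replicate is given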
# rRNA inh HTS OD600 – also measured in rRNA inh HTS; calls as there; OD600 change, %; measured here: OD600 growth;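 optical density of the mix in the first replicate; 0 = DMSO median and -100 = no signal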
# rRNA inh HTS RFP – also measured in rRNA inh HTS; calls as there; RFP signal change, %; measured here: RFP humanized mutant strains;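 first replicate; 0 = DMSO median and -100 = no signal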
# Active calls of the source: *; ? = inconclusive; · = not tested or not shown; & = joins results of further samples. The list is partial; rates above refer to the full screens.
Molecule	Vif TR-FRET	RanGTP-Imp inh	AF4-AF9 inh	rRNA inh HTS	rRNA inh HTS OD600	rRNA inh HTS RFP	T cruzi repl	Calb FLC	Bfl-1 A1 inh	Beta apoptosis
O=C(Nc1cc2c(oc1=O)CCCC2=O)c1ccc(Cl)cc1	?	1.1	·	·	·	·	-8	24	-0.2	-3
Cc1cccc(NC(=O)CSCC(=O)Nc2ccccc2C(=O)NC2CC2)c1	5%	6.1	-13	11	3	1.8	-14	0	-0.4	9
Nc1cccc(CCc2ccncc2)c1	?	-3.0	-0.2	5	-3	3.2	52	-8	0.3	·
CCOC(=O)C[n+]1c(C)csc1C	-6%	-1.2	1.0	9	19	0.7	-8	-4	0.9	-2
Cn1c2ccc(Cl)cc2c2nc3ccccc3nc21	4%	?	-2.8	-5	-3	-0.7	0	15	-0.4	-4
O=C(c1ccccc1)c1c[nH]c(C(=O)NCCCN2CCOCC2)c1	-3%	-6.3	·	·	·	·	-11	?	0.0	-3
O=C1NC2=C(C(=O)CCC2)C(c2ccc3ncccc3c2)N1 (stereo not given)	12%	1.0	3.2	17	21	-0.3	-14	12	-0.4	-5
COc1ccc(CN(Cc2cccnc2)S(=O)(=O)c2ccc(-n3cnnn3)c(C)c2)cc1OC	16%&-4%	5.2	·	·	·	·	78*	22	0.4	-2
Cc1ccc(-c2cc(C(=O)N/N=C/c3ccc(Cl)cc3)n[nH]2)o1	·	2.6	-1.9	9	13	4.2	-7	22	-0.6	6
COc1ccccc1C(=O)N1CCN(C2CCN(Cc3ccccc3)CC2)CC1	2%	1.3	·	·	·	·	-2	3	-0.4	·
O=C1c2ccccc2C(Nc2ccc3c(c2)OCCO3)N1Cc1ccccc1 (stereo not given)	9%	-4.7	·	·	·	·	3	9	-0.9	4
Cc1ccc(C)c(OCC(=O)Nc2nonc2NC(=O)COc2cc(C)ccc2C)c1	1%	3.9	·	·	·	·	-24	-4	3.0	-3
CSc1nnc(C)c(=O)n1COC(=O)COc1ccc(Cl)cc1	5%	-1.7	-2.0	1	3	0.6	-5	-2	0.0	-7
O=c1cc(-c2ccc(O)cc2)oc2c(C3OCC(O)C(O)C3O)c(O)c(C3OC(CO)C(O)C(O)C3O)c(O)c12 (stereo not given)	·	-2.2	-2.2	·	·	·	2	-11	1.7	-4
COc1cc(/C=C2\SC(=S)N(NC(=O)c3cccc(O)c3)C2=O)ccc1O	1%	-10	6.1	-12	-9	1.8	-15	-3	-0.6	4
C/C(CCC(=O)OC[C@H]1O[C@H](C#Cc2ccccc2)C=C[C@@H]1Oc1ccc(C)cc1)=N\OC[C@@H](O)[C@H]1O[C@@H]2OC(C)(C)O[C@@H]2[C@H]1O	?	1.0	·	·	·	·	-6	8	-1.2	-16
O=c1c2[nH]c3ccccc3c2ncn1CCCn1ccnc1	0%	?	·	·	·	·	1	?	-0.4	·
CCOC(=O)N1CCN(C(=O)CSc2nc(=O)n3ccccc3n2)CC1	6%	-0.7	-2.1	8	12	-0.1	-2	-5	0.7	-9
Cc1csc2nc(CSc3nc4ccccc4o3)cn12	29%	·	·	-12	-28	5.2	·	·	-6.0	-18
CCOc1ccc(/C(=N\O)C(C)NO)cc1 (stereo not given)	13%	3.4	-26	3	6	-1.3	1	18	1.2	-7
Cc1cc(NC(=O)CCC(=O)N(c2ccc(F)cc2)C(C(=O)NC2CCCC2)c2cccnc2)no1 (stereo not given)	·	3.7	-1.7	9	3	-0.6	0	?	0.3	-3
COc1ccccc1/C=N/NC(=O)c1cccc2ccccc12	·	-0.1	-0.5	8	7	-3.3	-8	-15	1.0	-1
NC(=O)C1CCCN1S(=O)(=O)c1ccc2ccccc2c1 (stereo not given)	·	3.7	-0.2	4	2	-3.6	-6	4	0.8	-1
CCOC(=O)N1CCN(c2ncnc3c2[nH]c2ccc(F)cc23)CC1	-10%	3.2	·	·	·	·	0	2	-0.5	76*
COc1cc(O)c(C(CCN2CCCC2)c2cc(OC)c(OC)c(OC)c2)c(OC)c1 (stereo not given)	·	-1.0	8.3	10	4	8.0	6	5	2.0	1
CSc1nnc(-c2sc(-c3ccccc3)nc2C)n1C	3%	-4.7	·	·	·	·	4	11	0.2	-1
O=C(NCCC1=CCCCC1)C1CCN(S(=O)(=O)N2CCCC2)CC1	-8%	-1.4	1.8	4	3	-3.4	-17	-8	0.2	-3
COc1cc(C(C)=O)ccc1OCCCOc1cccc2cccnc12	8%	-2.2	2.3	-10	-7	0.1	0	8	0.8	-5
CN1C(=O)C(CC(=O)Nc2ccc(F)cc2)N(NC(=O)c2cccc(F)c2)C1=S (stereo not given)	-3%	9.7	2.7	·	·	·	-12	-5	0.4	-6
COc1ccc(NC(C)C(=O)Nc2ccc(C(C)(C)C)cc2)cc1Cl (stereo not given)	5%	2.1	·	·	·	·	22	2	0.3	34
COc1ccc(OCC(=O)Nc2ccc(NC(=O)c3ccccc3Cl)c(OC)c2)cc1	·	-0.9	0.1	-4	-15	4.9	0	-3	0.0	0
O=C(COC(=O)Cc1cccc(C(F)(F)F)c1)NC1CC1	-2%	-2.5	·	·	·	·	-18	7	0.1	-4
O=S(=O)(Nc1ccc(N2CCOCC2)cc1)c1c(F)cc(F)cc1Br	·	-1.2	6.4	-4	3	4.8	16	-11	0.1	-2
CC(=O)Nc1ccc(NC(=O)C(C)OC(=O)CCCN2C(=O)c3cccc4cccc(c34)C2=O)cc1 (stereo not given)	·	1.9	-0.3	6	-1	-3.0	-4	-3	0.1	1
CCc1ccccc1NC(=O)C1CCCN(c2ncccn2)C1 (stereo not given)	·	0.0	-1.4	4	9	1.3	-12	-1	0.4	-4
CCOc1ccc(NC(=O)C(=O)NCCCn2ccnc2)cc1	9%	1.1	·	·	·	·	2	9	-0.3	·
O=C(N=Nc1c(O)[nH]c2ccccc12)c1cc(NS(=O)(=O)c2cccs2)cc(NS(=O)(=O)c2cccs2)c1	-3%	0.1	-0.9	12	22	0.2	4	3	-0.7	-5
COCCNC(=O)c1ccc2c3n(nc2c1)-c1ccc(Cl)cc1CO3	-4%	-0.5	·	-12	-19	-0.3	-11	-5	-1.1	-1
Cc1ccc(S(=O)(=O)c2nc(S(C)(=O)=O)sc2N2CCC3(CC2)OCCO3)cc1	-3%	1.6	-1.2	6	11	-3.1	3	1	1.0	4
C/C(=N\NC(=O)c1ccc(CN2CCOCC2)cc1)c1ccc(NC(=O)c2ccccc2)cc1	-2%	2.0	-0.2	5	7	3.8	1	-7	0.1	4
CN(C)S(=O)(=O)c1ccc2nnn(O)c2c1	-5%	-4.6	-1.0	·	·	·	-8	7	-0.4	-6
COC(=O)c1[nH]c2ccccc2c1NC(=O)CN1CCN(C(=O)c2ccco2)CC1	-3%	0.5	·	·	·	·	4	4	-0.6	-4
Nc1ccc2c(c1)C/C(=C/c1ccco1)C2=O	?	-6.6	·	·	·	·	-13	-22	-1.1	·
O=C1CCC(C(=O)N2CCCCO2)CN1Cc1cccc(F)c1 (stereo not given)	·	-0.5	-1.0	1	-3	1.1	-16	-2	-0.5	-5
Cc1ccc(O)c(NC(=O)C2CC(c3c(F)cccc3Cl)=NO2)c1 (stereo not given)	6%	-0.9	·	·	·	·	-20	12	-0.5	2
CCOC(=O)c1cnc(=O)[nH]c1C	·	4.9	·	·	·	·	-3	-2	0.7	0
COc1ccccc1CNC(=O)CN1C(=O)NC(C)(c2ccc(C)cc2)C1=O (stereo not given)	·	2.8	0.8	2	15	4.1	7	24	-0.8	-2
Cc1ccc(NC(=O)CSc2ccc(-c3cccnc3)nn2)c(C)c1	·	1.0	-3.6	3	-4	-0.3	1	1	0.2	0
O=C(Nc1cccc2c1CCCC2)c1cc([N+](=O)[O-])ccc1Cl	3%	-5.0	·	·	·	·	-1	8	0.6	7
COc1ccccc1C(=O)NC(=O)COC(=O)CNC(=O)c1ccc(Cl)c([N+](=O)[O-])c1	-3%	4.2	-2.4	2	3	-6.0	-7	11	0.4	5
COCCCNC(=O)c1ccc2c(=O)n(Cc3ccc(OC)cc3)c(=O)[nH]c2c1	?	0.6	7.5	-6	-3	-4.0	-8	-8	0.5	-3
CC(C)CCn1c(=O)c2ccccc2n2c(CN3C(=O)NC4(CCC(C)CC4)C3=O)nnc12 (stereo not given)	3%	-0.3	·	·	·	·	10	9	2.4	4
COc1ccccc1/C=C(/C(=O)NCCCn1ccnc1)c1ccccc1	·	-3.7	0.6	2	-11	-6.8	32	13	0.8	-1
COc1ccccc1C1C(C(N)=O)=C(C)Nc2nc(CCCO)nn21 (stereo not given)	5%	1.5	-14	12	8	4.2	-6	6	-0.8	-3
CCN(C(=O)Cn1c(=O)oc2ccccc21)c1cccc(C)c1	-4%	-3.2	0.6	3	5	-2.2	-2	-3	-0.2	-6
CC(=O)Nc1c(NC(=O)CC#N)[nH]c2c(c1=O)c(=O)n(C)c(=O)n2C	-4%	8.0	·	·	·	·	-12	-2	0.3	-1

# (cont.)
Molecule	Vif TR-FRET	RanGTP-Imp inh	AF4-AF9 inh	rRNA inh HTS	rRNA inh HTS OD600	rRNA inh HTS RFP	T cruzi repl	Calb FLC	Bfl-1 A1 inh	Beta apoptosis
CCOC(=O)N1CCN(C(=O)C2CCN(S(=O)(=O)c3cc(Cl)ccc3OCC)CC2)CC1	-1%	-3.0	-7.1	-11	-6	7.2	3	-2	-1.1	-2
CNc1ccccc1C(=O)OC(C)C(=O)Nc1ccc(Cl)cn1 (stereo not given)	5%	2.6	-10	-19	-26	14	-6	-2	0.2	·
c1ccc(-c2nc3ccccc3[nH]2)cc1	·	5.1	-6.3	6	0	-0.5	-13	1	-11	5
CC(=O)c1c(C)nc(-c2ccccc2)nc1NC(=O)C(C)C	0%	3.9	·	·	·	·	-7	-4	0.4	1
COc1ccc2[nH]c3c(C)c4ccncc4c(C)c3c2c1	-7%	45*	3.3	-3	-41	-25	58*	105*	0.4	100*
CCOc1ccc(S(=O)(=O)N2CCN(C(=O)c3cc4c(s3)CCCC4)CC2)cc1	·	2.9	·	·	·	·	-2	1	0.3	13
Cc1cccc(Nc2nc(NCCO)nc(N3CCCC3)n2)c1	·	-0.7	-2.1	-40	-57	-6.5	6	-14	-1.4	1
COc1cccc(-c2cc(C(=O)N3CCCCCC3)no2)c1	4%	0.3	-0.9	-13	-51	-7.1	11	0	-7.1	1
